Arbovirus inh: antivirals against arbovirus infection, primary screen, cell-based, full library, 10K replicate subset | arbovirus infection cell-based antiviral screen | inhibition, % at 10 µM | 200,000 compounds, 0.37% hits;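 active = inhibition from about 30%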;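 also: bluetongue infection of BSR cells; cell survival read as ATP light after 72 h; 0% = infected wells without compound and 100% = uninfected wells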
YopH PTP inh: YopH tyrosine phosphatase inhibitors, primary screen, biochemical, fluorescence Ex485/Em525. YopH tyrosine phosphatase [Yersinia enterocolitica]. inhibition, %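 (about 10 µM by stock and volumes)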. 140,000 compounds, 0.16% hits;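 active = inhibition of 50% or more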;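 also: controls were vehicle for no effect and minimum signal wells for full effect; inactives centre near -20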
Mtb betalactam: beta-lactam sensitization of Mtb H37Rv, H37Rv; M. tuberculosis H37Rv growth with meropenem, percent inhibition; hits of this screen are not shown here; inhibition, % at 25 µM; 330,000 compounds, 0.27% hits;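 active = about 74% or more and at least 40 points above the plate without the antibiotic, then above 30% in a dose series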;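 also: growth measured after seven days incubation then overnight dye step; 0% = bacteria only wells and 100% = bacteria with antibiotic; twin plates without the antibiotic show which effects depend on it; some results filed as inactive read as strong as hits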
RecA splice inh: Mtb RecA intein splicing inhibitors, primary screen, biochemical, fluorescence, HTS; Protein RecA (Mycobacterium tuberculosis (strain ATCC 25618 / H37Rv)), P9WHJ3; cell-free RecA intein splicing; inhibition, %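 (about 9 µM by stock and volumes)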; 290,000 compounds, 0.75% hits; in the data active = inhibition above about 30%;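 also: 0% = vehicle wells and 100% = reference inhibitor control wells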
Target sequence (P9WHJ3 whole entry, looked up, canonical isoform): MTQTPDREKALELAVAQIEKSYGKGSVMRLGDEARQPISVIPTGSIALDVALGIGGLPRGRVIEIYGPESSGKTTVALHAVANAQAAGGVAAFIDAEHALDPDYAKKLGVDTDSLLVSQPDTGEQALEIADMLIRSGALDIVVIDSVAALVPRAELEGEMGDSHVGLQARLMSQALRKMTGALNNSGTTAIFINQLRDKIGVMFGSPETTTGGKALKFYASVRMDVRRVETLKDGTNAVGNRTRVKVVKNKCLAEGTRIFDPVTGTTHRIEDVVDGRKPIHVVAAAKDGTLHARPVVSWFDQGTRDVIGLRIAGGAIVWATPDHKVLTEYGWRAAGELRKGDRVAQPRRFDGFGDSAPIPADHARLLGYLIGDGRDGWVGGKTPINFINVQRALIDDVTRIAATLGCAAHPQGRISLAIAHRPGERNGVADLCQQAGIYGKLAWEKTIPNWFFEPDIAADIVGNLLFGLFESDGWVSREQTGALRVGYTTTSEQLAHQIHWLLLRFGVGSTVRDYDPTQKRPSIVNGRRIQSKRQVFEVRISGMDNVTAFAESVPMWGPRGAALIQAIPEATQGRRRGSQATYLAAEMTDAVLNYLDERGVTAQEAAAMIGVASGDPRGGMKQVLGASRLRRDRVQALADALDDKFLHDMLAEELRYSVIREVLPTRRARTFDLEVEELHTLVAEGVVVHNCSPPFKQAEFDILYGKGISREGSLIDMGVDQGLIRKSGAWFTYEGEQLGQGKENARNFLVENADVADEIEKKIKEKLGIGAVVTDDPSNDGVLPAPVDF
Mtb H37Rv: M. tuberculosis H37Rv growth inhibitors, H37Rv strain (AID 1626) | one-dose inhibition, % at 10 µM; IC50 in µM for titrated hits | M. tuberculosis H37Rv growth inhibition; higher % means a stronger effect | 220,000 compounds, 0.95% hits;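 active = confirmed in a dose series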;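 also: bacteria incubated seven days before Alamar blue readout; 0% = bacteria only wells and 100% = bacteria with antibiotic wells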
Arbovirus inh repeat: second read-out of Arbovirus inh, no call of its own (marks repeat the call); inhibition, %; measured here: 10K subset replicate screen; many hits read low in the repeat;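 first of two repeat runs on a subset; 0% = infected and 100% = uninfected wells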
Starred values were filed as active, the others as inactive; . = no result given. The list is partial; count on the stated rates, not on these rows.

Preview (seven entries):
SMILES	Arbovirus inh	YopH PTP inh	Mtb betalactam	RecA splice inh	Mtb H37Rv	others
Cc1c(C(=O)NCCN(C)C)oc2ccc(S(=O)(=O)N3CCC4(CC3)OCCO4)cc12	.	.	-2.8	-1.1	.
Fc1ccc(-c2cnn3c(-c4cccs4)ccnc23)cc1	2.3	.	.	7.2	8.9%
O=C(COc1ccc(Cl)cc1)NCCS(=O)(=O)N1CCN(c2ccc(F)cc2)CC1	.	.	0.1	-3.7	.
CC(C)(O)C(=O)N=Nc1c(O)[nH]c2ccccc12	-1.4	.	3.0	0.8	-7.9%
Cc1cccc(OCc2nnc(SCC(=O)c3cccs3)n2C)c1C	8.2	-33.2	-7.2	3.7	3.5%
OCCC1CN(Cc2nc3c(s2)CCCC3)CCN1Cc1ccsc1 (stereo unspecified)	2.4	.	2.8	-0.5	.
CC(=O)c1c(C)[nH]c(C(=O)CSc2nnc(-c3ccccc3)n2Cc2ccc3c(c2)OCO3)c1C	-1.9	22.9	-2.6	1.2	0.2%

The list itself, from the first entry:
SMILES	Arbovirus inh	YopH PTP inh	Mtb betalactam	RecA splice inh	Mtb H37Rv	others
Cc1c(C(=O)NCCN(C)C)oc2ccc(S(=O)(=O)N3CCC4(CC3)OCCO4)cc12	.	.	-2.8	-1.1	.
Fc1ccc(-c2cnn3c(-c4cccs4)ccnc23)cc1	2.3	.	.	7.2	8.9%
O=C(COc1ccc(Cl)cc1)NCCS(=O)(=O)N1CCN(c2ccc(F)cc2)CC1	.	.	0.1	-3.7	.
CC(C)(O)C(=O)N=Nc1c(O)[nH]c2ccccc12	-1.4	.	3.0	0.8	-7.9%
Cc1cccc(OCc2nnc(SCC(=O)c3cccs3)n2C)c1C	8.2	-33.2	-7.2	3.7	3.5%
OCCC1CN(Cc2nc3c(s2)CCCC3)CCN1Cc1ccsc1 (stereo unspecified)	2.4	.	2.8	-0.5	.
CC(=O)c1c(C)[nH]c(C(=O)CSc2nnc(-c3ccccc3)n2Cc2ccc3c(c2)OCO3)c1C	-1.9	22.9	-2.6	1.2	0.2%
CC(=O)c1ccc(Nc2cc(C)nc3c(C)cc(C)cc23)cc1	-19.9	.	1.3	0.9	-1.9%
COc1ccc(CC(=O)Nc2ccc(C(=O)Nc3nccs3)cc2)cc1OC	-1.7	.	.	-1.9	1.6%
COc1ccc(C(=O)/C=C/c2ccc(N(C)C)cc2)c(OC)c1	.	.	85.3	2.0	-5.2%
CC(C)(C)NC(=O)CCC1COc2ccccc2O1 (stereo unspecified)	4.2	-8.1	-8.7	-0.7	-7.0%
Cc1cc(S(=O)(=O)N2CCOCC2)ccc1OCC(=O)NCCCn1ccnc1	.	.	-3.1	-2.4	.
O=C(CCc1c[nH]c2ccccc12)NCc1ccco1	-3.0	.	-0.3	0.5	-6.3%
N#Cc1c(Cn2cncn2)nc(=O)n(-c2ccc(Cl)cc2)c1N	1.1	.	-9.0	-1.9	0.8%
CCOC(=O)Nc1ccc2c(c1)N(C(=O)CNC)c1ccccc1CC2	.	.	-3.3	-1.1	.
COc1cc(/C=N/O)cc(Br)c1OCc1ccc(Cl)cc1	10.7	-28.6	54.2	3.7	55.3%
Cc1cccc(NC2=NC3(CCCCC3)N=C(N)N2)c1C	-7.2	-42.6	-5.6	0.0	2.2%
O=C(CN1CCCc2ccccc21)N/N=C/c1ccccc1O	-16.5	-11.4	49.6	-3.0	-1.1%
O=C(O)c1ccc(COc2ccc3ccccc3c2/C=C2/NC(=O)N(Cc3ccc(F)cc3)C2=O)cc1	47.7*	.	.	.	0.1%
Cc1cc(NC(=O)CCC(=O)N(CCC(C)C)C(C(=O)NC2CCCC2)c2ccccc2C)no1 (stereo unspecified)	.	.	3.1	4.9	.
COC(=O)C1C(O)=C(C(C)=Nc2cccc3ccccc23)C(=O)CC1(C)C (stereo unspecified)	.	.	73.6	15.2	0.1%
CCN(CC)CC(=O)NCC1(c2ccccc2)CCOCC1	11.6	-7.3	1.9	4.8	4.5%
C(=N\Nc1nc(N2CCCCC2)nc(N2CCCCC2)n1)/c1c[nH]c2ccccc12	10.3	.	4.2	-7.1	-5.5%
CC[n+]1c(/C=C/Nc2ccccc2)oc2ccccc21	-9.3	-24.6	9.7	-2.8	2.3%
COc1ccc(C2CC(c3ccccc3)=NN2C(=O)c2ccc(F)cc2)cc1 (stereo unspecified)	.	.	3.9	-0.8	.
COc1cccc(C(C(=O)NC2CCCCC2)N(C(=O)c2cccs2)c2ccc3c(c2)OCO3)c1 (stereo unspecified)	-0.3	-17.7	5.8	.	-12.1%
COC(=O)Nc1ccc(S(=O)(=O)Nc2cccc3ccccc23)cc1	6.8	-10.2	-3.6	4.4	3.8%
Cc1[nH]c2ccccc2c1C(=O)C(=O)NCc1cccs1	-4.0	.	2.1	-0.7	14.2%
Cc1nc(NC(=O)c2ccccc2)sc1C	.	.	3.0	0.0	.
Cc1ccc(N(C(C)C(=O)O)S(=O)(=O)c2cccnc2)cc1 (stereo unspecified)	7.7	-23.9	-2.5	1.6	-6.4%	Arbovirus inh repeat=4.9
COc1ccc(Br)cc1/C=N/Nc1ccc(Cl)c(C(=O)O)c1	3.8	.	5.8	-3.9	5.8%
N/C(=N\OC(=O)C(c1ccccc1)c1ccccc1)c1cccnc1	-8.0	-40.1	0.3	2.3	15.6%
O=C(O)c1cnc(-c2ccccc2)nc1Sc1ccc(Cl)cc1Cl	18.9	-22.9	3.9	-1.3	-0.8%
CCOC(=O)C1CC(C)=C(C)CC1C(=O)O (stereo unspecified)	.	.	0.3	-0.8	-7.1%
CSC(=Nc1ccccc1)Nc1ccccc1	.	.	-5.9	0.7	1.8%
CCCNC(=S)Nc1ccc2nc(-c3ccccn3)c(-c3ccccn3)nc2c1	3.2	-43.8	13.8	-42.7	.
NC(=O)Cc1ccc(C(=O)c2ccc(Cl)cc2Cl)s1	-0.6	.	1.9	1.0	6.5%
CCCCNC(=S)Nc1ccc2cn[nH]c2c1	0.7	-24.5	97.9	2.1	58.9%
Cc1cccc(-c2nsc(SCC(=O)Nc3nccs3)n2)c1	-8.2	-37.2	46.5	-0.7	10.4%
O=C(NC1CCCC1)C(c1cccs1)N(C(=O)c1ccno1)c1ccccc1 (stereo unspecified)	-0.2	-22.9	0.8	-2.5	1.7%

Two entries drawn at random from the list so far:
SMILES	Arbovirus inh	YopH PTP inh	Mtb betalactam	RecA splice inh	Mtb H37Rv	others
CCOC(=O)C1CC(C)=C(C)CC1C(=O)O (stereo unspecified)	.	.	0.3	-0.8	-7.1%
O=C(NC1CCCC1)C(c1cccs1)N(C(=O)c1ccno1)c1ccccc1 (stereo unspecified)	-0.2	-22.9	0.8	-2.5	1.7%

(list continues)
SMILES	Arbovirus inh	YopH PTP inh	Mtb betalactam	RecA splice inh	Mtb H37Rv	others
CC1(C)CC(=O)C(C=NCCCO)=C(O)C1	-0.7	-31.2	0.1	0.8	-9.2%
CC(C)(C)OC(=O)C1C(=O)CC(C)(O)C(C(=O)OC(C)(C)C)C1c1cccnc1 (stereo unspecified)	1.3	-3.6	1.9	-1.2	0.7%
CC(CCc1ccccc1)C(=O)NO (stereo unspecified)	-1.7	-39.6	5.0	-0.9	-2.6%	Arbovirus inh repeat=-6.3
Cc1ccc(C(OC(=O)c2ccco2)C(=O)NC(C)(C)C)cc1 (stereo unspecified)	.	.	-0.9	0.6	.
O=C(NCc1ccc2c(c1)OCO2)C1CCN(S(=O)(=O)c2ccc(Br)s2)CC1	-17.1	-18.3	7.1	-0.1	3.8%
CCOC(=O)Cc1csc(NC(=O)c2cc(C)cc(C)c2)n1	-2.4	.	-4.4	1.3	8.7%
COC(=O)C1=C(C)N(CCCC(=O)O)C(=O)NC1c1ccc(C#N)cc1 (stereo unspecified)	.	.	-2.9	4.0	-9.1%
CCOC(=O)c1c(C2CC2)csc1NC(=O)COC(=O)CCS(=O)(=O)c1ccc(C)cc1	-4.4	-35.9	0.3	1.4	13.9%
CN(C1=C(N2CCCCC2)C(=O)c2ccccc2C1=O)c1ccccc1	-14.4	7.6	7.2	25.3	1.2%
O=C(CCN1C(=O)/C(=C/C=C/c2ccccc2)SC1=S)Nc1cccnc1	8.3	-11.9	1.8	-1.6	1.5%
COc1ccc(S(=O)(=O)c2ccccc2)cc1NC(=O)c1c(F)cccc1F	.	.	0.9	4.6	.
CC1(C)CC(=O)C(C=Nc2cccc(/N=C/C3=C(O)CC(C)(C)CC3=O)n2)=C(O)C1	0.3	-28.6	.	.	.
CC(=O)c1cn(CC(=O)Nc2cccc(C)c2C)c2ccccc12	5.6	.	-2.8	0.2	-3.9%
O=C(c1ccc(Br)o1)N1CCN(C23CC4CC(CC(C4)C2)C3)CC1	.	.	-8.9	-0.3	.
CCc1c(C)sc(NC(=O)C2CC(c3c(F)cccc3Cl)=NO2)c1C#N (stereo unspecified)	.	.	-3.8	3.9	.
CN(C)C(=S)Nc1ccc(Cl)cc1	.	.	-0.2	-3.1	-14.3%
COc1cc(/C=C/C(=O)OC2CC3CCC2(C)C3(C)C)ccc1O (stereo unspecified)	.	.	47.7	24.2	27.1%
Cc1ccccc1N=C/C=C1/C=C(c2ccccc2)OC(C)(C)O1	22.9	7.0	-0.2	-15.6	3.6%
CCCCCCn1cnc2c(c1=O)c1nc3ccccc3nc1n2/N=C/c1ccco1	-1.4	-42.4	.	-0.4	4.0%
CCc1ccc(C(O)(CC)C(CN2CCOCC2)c2ccccc2)cc1 (stereo unspecified)	.	.	8.6	2.8	.
Cc1cc(C=O)c(C)n1C1CC1	15.5	.	-2.0	1.8	-0.4%
O=C(CSc1nc2ccccc2c(=O)n1-c1cccc(C(F)(F)F)c1)NC1CC1	5.8	-16.9	0.5	-1.8	-3.3%
CCC(=O)NC(Nc1sc2c(c1C(=O)OC)CCN(C)C2)(C(F)(F)F)C(F)(F)F	3.6	-9.4	-14.4	-2.0	-4.2%
O=C(Nc1cccc(Cl)c1)Nc1ccon1	.	.	1.2	6.3	.
CCNC(=O)C(=O)NCC1OCCCN1S(=O)(=O)c1cccs1 (stereo unspecified)	-4.8	-31.5	-1.1	-1.3	-0.4%
CN(C)c1ccc(/C=N/OC(=O)Nc2ccccc2Cl)cc1	0.8	.	-4.4	-2.2	1.1%
FC(F)(F)c1cnc(-c2cnc(-c3ccccn3)nc2)c(Cl)c1	-12.6	.	70.5	4.9	.
Cc1cc(Nc2cc(C)on2)n2ncnc2n1	4.0	-21.4	-5.8	-0.1	-0.7%	Arbovirus inh repeat=-1.1
Fc1ccc(Nc2nnc(C(F)(F)F)s2)cc1	.	.	-7.6	.	3.1%
COc1ccc(CCN(C)C(=O)C2CCCN(C3CCN(Cc4ccccc4)CC3)C2)cc1OC (stereo unspecified)	.	.	-7.3	-0.4	.
COc1cc(OC)c2ccc(=O)oc2c1C(CCN1CCCC(C)C1)c1ccc2c(c1)OCO2 (stereo unspecified)	.	.	1.3	0.5	-5.6%
COc1cc(C=O)ccc1OCc1ccccc1Br	6.8	-35.5	6.6	3.5	11.1%
CCOC(=O)c1sc2nc(C)c([N+](=O)[O-])c(COC)c2c1N	2.2	.	8.5	7.3	.
O=C1CSC(=NC(=O)c2ccccc2)N1	4.1	-56.2	13.8	-0.5	-6.3%
CC(=O)c1cccc(N(CC(=O)O)S(C)(=O)=O)c1	3.2	-3.1	-9.2	-6.7	-4.3%
Cc1ccc(CNc2nc(-c3cccs3)nc3ccccc23)cc1	4.7	-18.4	99.2	16.7	9.84µM*
O=C(CSCc1ccc([N+](=O)[O-])cc1)NCCSCc1ccccc1	-11.7	-33.0	57.8	-1.8	-2.6%
O=C(c1ccc([N+](=O)[O-])cc1)n1nc(-c2ccccc2)nc1NCc1ccc(F)cc1	-8.3	-29.0	4.4	1.4	2.9%
O=C(CCOc1ccccc1)Nc1cccc(S(=O)(=O)Nc2ccccc2Cl)c1	16.5	-21.8	1.6	-3.3	3.3%
CC1(C)NC(=O)N(CC(O)CN(c2ccccc2)S(=O)(=O)c2ccc([N+](=O)[O-])cc2)C1=O (stereo unspecified)	.	.	-1.6	-5.3	.
O=C(CN(C(=O)Cn1nnc(-c2cccs2)n1)c1cnc2ccccc2c1)NCC1CCCO1 (stereo unspecified)	4.3	-8.6	4.1	0.8	-8.2%
O=C1CCC(=O)N1c1nc2nc(-c3ccccc3)cc(-c3ccccc3)n2n1	4.7	-35.7	-6.3	0.9	21.1%
c1ccc(OCCSc2nnc3sc4ccccc4n23)cc1	25.7	-23.0	15.8	3.3	28.7%
CC(=O)c1ccc(NC(=S)N2CC(C)CC(C)C2)cc1 (stereo unspecified)	10.6	-11.5	9.8	-1.9	-1.1%
Cc1cc(SCC(=O)Nc2cccnc2Cl)nc2ccccc12	-7.8	.	-2.1	16.7	-2.3%
CCc1nnc(NS(=O)(=O)c2ccc(NC(=S)NC(=O)c3ccc(OC)cc3)cc2)s1	8.4	-2.1	4.9	-2.6	57.6%

Screening data: PubChem, several laboratories
